TsaE inh: YjeE (TsaE) inhibition, E. coli. P0AF67. purified YjeE, fluorescence polarisation of a bound ADP probe. Potency, µM. actives 0.05% (n = 71,000). AID 605; active = well fitted falling curve; inconclusive = weaker or top-dose-only fall, or a rising curve; inactive = flat or poorly fitted curve;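 further: top concentration of the series not given in the record; excess ADP was the control for the full effect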
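Purified YjeE (10 uM) with BODIPY Texas Red-labeled ADP probe (2 uM); compounds pin-transferred, 15 min at room temperature. Binding inhibition read as decreased fluorescence polarization; ADP titration as control.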
Bst PK mod: pyruvate kinase (B. stearothermophilus) modulation. partly purified Bacillus stearothermophilus pyruvate kinase, luminescence ATP production; ribose 5-phosphate activator present at AC10. Potency, µM. actives 1.2% (n = 51,000). AID 361; in the data active means potency below about 11 µM; inconclusive means mostly about 12 µM to 25 µM; inactive means weaker than that;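 the screen sought inhibitors and activators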;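 further: potency means the concentration at half of the fitted maximal effect; scaled between full activation by ribose 5 phosphate and full inhibition by luteolin; about four in five hits inhibit and the cells do not say which; series up to 57 µM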
Active calls of the source: *; i = inactive; ? = inconclusive; . = no result given. These rows are one share of the data, so the mix of outcomes need not match the whole.

entry	SMILES	TsaE inh	Bst PK mod
1	O=C(c1ccc(F)cc1)N1CCN(Cc2ccccc2Br)CC1	i	i
2	O=C(NCCN1CCCC1)C1(S(=O)(=O)c2ccc(Cl)cc2)CC1	i	>57
3	CCC(=O)Nc1nonc1-c1nc2ccccc2n1N(C(=O)CC)C(=O)CC	i	>57
4	O=C(CN1C(=O)c2ccccc2C1=O)Nc1ccccc1F	i	.
5	Cc1cccc2cc(C(c3nnnn3CC3CCCO3)N3CCCc4ccccc43)c(=O)[nH]c12 (configuration not stated)	i	>57
6	Cc1cccc2cc(COC(=O)c3cccnc3)c(=O)[nH]c12	i	>57
7	O=C1c2ccccc2C(=O)N1c1ccc(S(=O)(=O)N2CCN(c3ccccc3)CC2)cc1	i	>57
8	CCOc1ccc(OCC)c(NC(=O)CSCC(=O)O)c1	i	>57
9	CCCn1c(CNC(=O)c2cccs2)nc2ccccc21	i	.
10	COC(=O)c1ccc(NC(=O)C2CCCN2S(=O)(=O)c2ccc(F)cc2)cc1 (configuration not stated)	i	?
11	COCCN(C(=O)CCC(=O)Nc1cccnc1)C(C(=O)NC1CCCCC1)c1ccccc1 (configuration not stated)	i	>57
12	CCN1CCN(CCCNC(=O)C(NC(=O)C2CCC(C)CC2)C(C)C)CC1 (configuration not stated)	i	>57
13	CN1CCN(/C(=N\O)c2nonc2N)CC1	i	>57
14	CCOC(=O)c1sc2nc(CC(=O)OC)nc(NCc3ccco3)c2c1C	i	>57
15	CCS(=O)(=O)N1CCC(C(=O)NCCc2ccc(C)cc2)CC1	i	>57
16	Cc1cccc(OCCCC(=O)O)c1	i	>57
17	O=C(NCc1ccncc1)c1cccc(Cn2cc(Br)cn2)c1	i	>57
18	O=C(c1ccco1)N1CCC2(CC1)CCN(C(c1ccccc1)c1ccccc1)CC2	i	.
19	CCCN(CCC)CCNC(=O)C1CCCN(S(=O)(=O)c2ccc3c(c2)oc(=O)n3C)C1 (configuration not stated)	i	>57
20	COC(=O)C1=C(C)NC2=C(C(=O)c3ccccc32)C1c1ccc(-c2ccc(C(=O)O)cc2)o1 (configuration not stated)	i	>57
21	O=C(c1ccncc1)N1CCC2(CCCN(Cc3ccncc3)C2)CC1	i	.
22	Cn1c(=O)oc2cc(S(=O)(=O)NC(Cc3ccccc3)C(=O)N3CCCCC3)ccc21 (configuration not stated)	i	.
23	O=C(Nc1nccs1)c1c(O)c2cccc3c2n(c1=O)CCC3	i	>57
24	COc1cccc(Cn2c(C3CC3)nc3ccc(NC(=O)c4ccco4)cc3c2=O)c1	i	.
25	O=S(=O)(CCSc1nc2ccccc2o1)Cc1ccccc1	i	>57
26	CCOCCCNC(=O)c1ccc(CS(=O)(=O)Cc2cccc(C)c2)o1	i	>57
27	CCCCn1c(=O)cc(N2CCOCC2)[nH]c1=O	i	.
28	CCOC(=O)c1sc(NC(=O)c2ccc(Cl)s2)cc1C	i	.
29	COc1ccc(-c2c3c(=O)n(C)c(=O)n(C)c3cn2-c2ccccc2)cc1	i	>57
30	CCOC(=O)c1cc2cc(F)ccc2nc1C	i	.
31	CCCCc1cc(=O)oc2cc(C)cc(OC(C)C(=O)O)c12 (configuration not stated)	i	>57
32	Cc1ccccc1C(=O)N1CCC(C(=O)Nc2cccc(F)c2)CC1	i	.
33	N#Cc1nc(-c2ccc(OCc3ccccc3)cc2)oc1N1CCC(C(N)=O)CC1	i	4.9*
34	O=C(c1ccc(Br)cc1)N1CCN(S(=O)(=O)c2ccccc2)CC1	i	.
35	COc1ccc(OC)c(-c2cc(C(=O)N3CCc4ccccc4C3)no2)c1	i	>57
36	Cc1[nH]nc2c1C(c1cn[nH]c1-c1ccc(F)cc1)C(C#N)=C(N)O2 (configuration not stated)	i	>57
37	CCOC(=O)N1CCN(CC(=O)n2c(C)c(C)c3ccccc32)CC1	i	i
38	O=C1CC(c2cccc(Br)c2)C2=C(CCCC2=O)N1 (configuration not stated)	i	.
39	CN(C)CCNc1oc(COc2ccc(Cl)cc2)nc1C#N	i	>57
40	COc1cc(OC)cc(-n2nc(C(=O)NCCCN3CCOCC3)c3ccccc3c2=O)c1	i	>57
41	CCOc1ccccc1OCC(=O)Nc1ccc(S(=O)(=O)Nc2nc(C)cc(C)n2)cc1	i	>57
42	O=P(c1ccccc1)(c1ccccc1)C(O)c1ccco1 (configuration not stated)	i	.
43	O=C(O)CC(C(=O)O)C(CC(=O)O)C(=O)O (configuration not stated)	i	.
44	O=C(NCN1C(=O)C2C3C=CC(C3)C2C1=O)Nc1nccs1 (configuration not stated)	i	>57
45	CCOC(=O)C1=C(C)NC(SCC(=O)Nc2nc(C)cs2)=C(C#N)C1c1cccs1 (configuration not stated)	.	>26
46	O=C(c1csc2ccccc12)N1CCN(c2ccccn2)CC1	i	.
47	COc1cccc(-c2nc(N3CCCCC3C)c3ccccc3n2)c1O (configuration not stated)	.	>26
48	Cn1nnc(NC(=O)C(c2ccccc2)c2ccccc2)n1	i	>57
49	Cc1occc1-c1nnc(SCC(=O)Nc2ccc(F)cc2)n1Cc1ccccc1	i	>57
50	COc1ccc(CSc2nnc(N)s2)cc1F	i	>57
51	Cc1nn(Cc2ccccc2)c(N)c1-c1ccccc1	i	.
52	Cc1cccc(-c2nsc(SCC(=O)NCc3ccco3)n2)c1	i	>57
53	O=C(Nc1ccccc1N1CCN(C(=O)c2ccc(Cl)cc2)CC1)c1cc2ccccc2o1	i	>57
54	CCC(=O)N(Cc1ccc(S(N)(=O)=O)cc1)C1CC(=O)N(c2ccc(OC)cc2)C1=O (configuration not stated)	i	>57
55	CCOc1ccc2[nH]c(=O)c(CN(Cc3ccco3)C(CC)c3nnnn3Cc3ccccc3)cc2c1 (configuration not stated)	i	>57
56	O=C(c1cc(C(F)(F)F)cc(C(F)(F)F)c1)N1CCC[C@@]2(CCN(c3ncccn3)C2)C1	i	.
57	COc1ccc(-n2nc(C(=O)N3CCN(Cc4ccc5c(c4)OCO5)CC3)c3ccccc3c2=O)cc1	i	>57
58	CCOC(=O)C(CC)Sc1nc(-c2ccc(OC)cc2)nc2c1c(=O)n(C)c(=O)n2C (configuration not stated)	i	>57
59	CC(C)c1ccccc1NC(=O)CCCC(=O)O	i	.
60	CC(=O)c1ccccn1	i	.

Whole records as entered above. Screens in order: TsaE inh, Bst PK mod
Cc1nn(Cc2ccccc2)c(N)c1-c1ccccc1 across the screens: i, .
COc1ccc(CSc2nnc(N)s2)cc1F across the screens: i, >57
O=C(NCN1C(=O)C2C3C=CC(C3)C2C1=O)Nc1nccs1 (configuration not stated) across the screens: i, >57

New compounds follow.
entry	SMILES	TsaE inh	Bst PK mod
61	Cc1ccc(C)c(N(CC(=O)NC2CCCC2)C(=O)CCCC(=O)Nc2ccccn2)c1	i	>57
62	O=C(Cc1cn2ccsc2n1)NCc1ccccc1	i	>57
63	Cc1noc(C)c1CSc1ccccc1C(=O)Nc1nccs1	i	>57
64	O=C(c1cnccn1)N1CCc2ccccc21	i	>57
65	O=C(Nc1ccc(Cl)cc1C(=O)NCc1cccnc1)c1ccco1	i	.
66	O=C(NCCSCc1c(F)cccc1Cl)c1ccco1	i	>11
67	O=C(CSc1nnc(-c2cnccn2)n1Cc1ccco1)c1ccc(Cl)c(Cl)c1	i	?
68	Cc1cccc2cc(COC(=O)c3ccccn3)c(=O)[nH]c12	i	>57
69	CN1CCN(C(CNS(=O)(=O)c2ccc(F)cc2)c2cccnc2)CC1 (configuration not stated)	i	>57
70	Cn1c(=O)c(=O)n(C)c2cc(S(=O)(=O)N3CCCCC3)ccc21	i	>57
71	CCOc1nc(-c2ccncc2)nc2ccccc12	.	?
72	COc1cc(-c2csc(N3CCOCC3)n2)cc(OC)c1OC	i	>57
73	CCC(=O)Nc1cc(NC(=O)CSc2nnc(C(C)C)n2CC)ccc1C	i	>57
74	Cc1ccc(SCC(=O)N(Cc2nc(-c3ccccc3)no2)C(C)C)cc1	i	>57
75	c1ccc(CN2CCC(N3CCN(Cc4ccc5c(c4)OCO5)CC3)CC2)cc1	i	.
76	CCOC(=O)CCc1c(C)n(CC)c2ncnn2c1=O	i	.
77	COc1ccc(NC(=O)N2CC[C@@]3(CCCN(C(=O)c4cccc(F)c4)C3)C2)cc1	i	.
78	CC1CCc2sc3c(c2C1)c1ncnn1c(=O)n3CC(=O)c1ccc(Br)cc1 (configuration not stated)	i	>57
79	COc1ccc(S(=O)(=O)N2CCN(Cc3ccc(Cl)cc3)CC2)cc1	i	>57
80	CC(NC(=O)NC1CCCCC1)C(c1cccs1)N1CCOCC1 (configuration not stated)	i	.
81	O=C1CC(c2cccnc2)c2cc3c(cc2N1)OCCO3 (configuration not stated)	i	.
82	Nc1cccc(S(=O)(=O)O)c1	i	.
83	COc1cccc(-c2cc(C(=O)Nc3ccc(OC)c(OC)c3)no2)c1	i	>57
84	COC(=O)c1cccc(C(=O)Nc2cnc3ccccc3c2)n1	i	.
85	CC1(C)CN=C(NC2CCCCC2)S1	i	.
86	CN(C(=O)c1ccncc1)c1nnc(-c2cnccn2)s1	i	>57
87	Cc1cccc(C)c1NC(=O)C1CCCNC1 (configuration not stated)	i	>57
88	CCn1c(=O)c(C(=O)Nc2cnccn2)c(O)c2ccccc21	i	>57
89	CCn1c(Cc2ccc(OC)cc2)nnc1SCC(=O)Nc1cccc(C(=O)OC)c1	i	>57
90	CCOC(=O)C1CCN(c2c(Nc3ccc4c(c3)OCCO4)c(=O)c2=O)CC1	i	.

With a hit mark in Bst PK mod (from the list above):
entry	SMILES	TsaE inh	Bst PK mod
33	N#Cc1nc(-c2ccc(OCc3ccccc3)cc2)oc1N1CCC(C(N)=O)CC1	i	4.9*

Later entries.
entry	SMILES	TsaE inh	Bst PK mod
91	O=C(NS(=O)(=O)c1ccc2c(c1)OCCO2)c1ccccc1	i	>57
92	CCOC(=O)C1C2C=CC3(CN(c4cccc(Cl)c4)C(=O)C13)O2 (configuration not stated)	i	.
93	Cc1cc(=O)oc2ccc(OCC(=O)N(Cc3ccc(F)cc3)Cc3ccco3)cc12	i	>57
94	O=C(CSc1nc(Nc2ccccc2)nc(N2CCOCC2)n1)Nc1ccccc1Cl	i	>57
95	O=C(CCSCCC(=O)NCC1CCCO1)NCC1CCCO1 (configuration not stated)	i	>57
96	COc1ccc2c(c1OC)C(=O)N1c3ccccc3C(=O)N(c3ccc(F)cc3)C21 (configuration not stated)	.	>26
97	Cc1cc(N2CCCCC2)nc2ccc(Cc3ccc4nc(N5CCCCC5)cc(C)c4c3)cc12	i	.
98	CCOC(=O)N1CCN(c2ccc(S(=O)(=O)N(Cc3ccccc3)Cc3ccccc3)cn2)CC1	i	>57
99	CCOc1ccc(N2CC(=O)SC2=S)cc1	i	.
100	CCOC(=O)C1CCCN(C(=O)CCCOc2cc(=O)n(C)c3ccccc23)C1 (configuration not stated)	i	>57
101	Cc1nc(NC2=NCN(Cc3ccco3)CN2)nc2ccccc12	i	>57
102	Cc1ccc(-c2cc(C(=O)Nc3cc(C)on3)c3ccccc3n2)c(C)c1	i	.
103	CC(C)CN(C#N)c1nc(N2CCOCC2)nc(N2CCOCC2)n1	i	>57
104	COc1ccc(-c2cn3cc(C)ccc3n2)cc1OC	i	1.8*
105	O=C(CSCc1cccc(F)c1)N1CCN(c2ccccc2)CC1	i	>57
106	COC(=O)CNC(=O)[C@@]1(C)C=C[C@@H](Cc2ccccc2)N1C(C)=O	i	.
107	O=C(Nc1ccc(F)cc1)NC1CCN(Cc2nnnn2Cc2ccco2)CC1	i	>57
108	O=C(Cn1nnc(-c2ccccc2-n2cnnn2)n1)c1ccccc1	i	?
109	Cc1nn(C2CCCCC2)c(N)c1-c1ccccc1	i	.
110	COc1cc2nc(C3CC3)n(NC(=O)c3ccc(Cl)cc3)c(=O)c2cc1OC	i	>57
111	COC(=O)[C@@]1(Cc2ccc(OC)cc2)[C@H]2c3cc(C(=O)N(C)C)n(CCO)c3C[C@H]2CN1C(=O)c1ccccc1	i	.
112	O=C1c2cccnc2C(=O)N1Cc1ccccc1	i	.
113	CN(C)c1ccc(-c2cncnc2Nc2ccccc2)cc1	i	.
114	N#CCCn1ncc2ccccc21	i	>57
115	Cc1c(C(=O)NC2CC2)oc2ccc(S(=O)(=O)N3CCCCCC3)cc12	i	>57
116	Cc1ccc(C)c(N2CCN(C(=O)CN(C)S(=O)(=O)c3ccc4c(c3)CCC(=O)N4)CC2)c1	i	.
117	Cc1ccccc1C(=O)/C=C1\NC(=O)CS1	i	>57
118	CC(CN(C)Cc1ccccc1)OC(=O)c1cccs1 (configuration not stated)	i	>57
119	CCNc1ncc2nc(C)c(=O)n(C3CC3)c2n1	i	.
120	O=c1c2ccccc2nc2sc3ccccc3n12	i	6.8*
121	CCCn1c(-c2ccc(F)cc2)nc2c(NC(C)CCCN(CC)CC)nc(C)nc21 (configuration not stated)	i	.
122	CN1CCN(C(=O)NC2CCCN2S(=O)(=O)c2ccc(Cl)cc2)CC1 (configuration not stated)	i	>57
123	O=C(Nc1c(F)cc(F)cc1Br)c1cccnc1	i	>57
124	COc1ccc(O)c(-c2[nH]ncc2C(=O)c2ccccc2C)c1	i	>57
125	Cn1c(C(=O)NC2CCCCCC2)cc2c(=O)n(C)c3ccccc3c21	i	.
126	CC(=O)n1cc(C2C(=O)CCCC2=O)c2ccccc21	i	>57
127	Cc1ccccc1Cn1nnc(-c2cccc(C(=O)O)c2)n1	i	>57
128	Cc1ccc(CNC(=O)CN2CCN(Cc3ccc(Cl)cc3)C2=O)cc1	i	>57
129	CCNc1ncc2nc(-c3ccc(OC)cc3)c(=O)n(CCC#N)c2n1	i	.
130	Cc1cnn(Cc2ccccc2)c1N	i	>57

High-throughput results (PubChem BioAssay)
